# High-throughput results as filed in PubChem.
# Hsc70 ATP site – Hsc70 inhibitors, probe displacement, primary screen, biochemical, fluorescence polarization (AID 568); Hsc70 fluorescence polarization, probe displacement; higher % means a stronger effect; strong numbers were not always called active; one-dose displacement, % at 20 µM; IC50 in µM for titrated hits; 83,000 tested, under 10 active;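 active means displacement above 50% without optical interference and an IC50 on retest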;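 further: ATPase domain with a fluorescein-tagged ATP probe; 0% = vehicle and 100% = excess ADP; read after one hour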
# MT1-MMP reporter – inhibitors of MT1-MMP promoter transcription, cell-based, luciferase reporter, luminescence (AID 618); MT1-MMP promoter luciferase reporter cells, luminescence; calls from a first round at 10 µM; hits with a dose series show EC50 in µM; actives 0.62% (n = 87,000);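 active means over half of the reporter light lost at 10 µM or EC50 under 50 µM; inactive means the rest and hits that failed the dose series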;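 further: actives suppress MT1-MMP promoter-driven transcription so potencies describe inhibitors; HT1080 fibrosarcoma cells; overnight exposure; toxic or luciferase-blocking compounds were not removed from the actives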
# WNV protease inh – inhibitors of WNV NS2B-NS3 protease, primary screen, biochemical, fluorogenic substrate; actives 0.18% (n = 65,000); z-score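 (tested at a level between 10 and 100 µM)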; fluorogenic substrate Ex360/Em465; active compounds read low;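 active means z-score at -3 or under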;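 further: score is relative to mean and spread of the compound wells of a plate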
# Target sequence (P06935 1371-1501 limits assumed): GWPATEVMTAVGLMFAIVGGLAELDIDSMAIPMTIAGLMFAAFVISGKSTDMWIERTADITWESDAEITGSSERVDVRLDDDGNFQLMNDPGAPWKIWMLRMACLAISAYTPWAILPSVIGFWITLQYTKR
# Target sequence (P06935 1502-1679 limits assumed): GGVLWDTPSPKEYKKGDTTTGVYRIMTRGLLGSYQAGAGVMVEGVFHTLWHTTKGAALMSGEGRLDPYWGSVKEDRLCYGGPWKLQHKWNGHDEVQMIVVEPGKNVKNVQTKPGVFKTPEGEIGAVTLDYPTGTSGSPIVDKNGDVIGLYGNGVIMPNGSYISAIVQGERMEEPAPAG
# Numbers without * were called inactive; i = inactive; . = not tested or not shown; + = active, no number.
# Values in the order: Hsc70 ATP site | MT1-MMP reporter | WNV protease inh
Cc1nc(-c2ccc(S(=O)(=O)N3CCCCCC3)cc2)cs1
  4.3% | i | 0.69
O=C(CN1C(=O)C2CC=CCC2C1=O)OCCN1C(=O)c2ccccc2C1=O (centres undefined)
  4.7% | i | -1.1
CCOC(=O)CCP(=O)(O)C(O)c1ccccc1 (centres undefined)
  8.2% | i | .
CCOC(=O)c1cc2c(=O)n3ccccc3nc2n(Cc2ccc(Cl)cc2)c1=N
  -94% | i | -0.01
c1nc(N2CCC3(CC2)OCCO3)c2[nH]cnc2n1
  -0.2% | i | -1.6
COc1ccc(Nc2nnc(Cc3ccccc3)c(=O)[nH]2)c(OC)c1
  -12% | i | -0.69
COc1cc(CO)cc(-c2cc(CO)cc(OC)c2OC)c1OC
  2.6% | i | -0.05
CCCc1cc(=O)[nH]c(SCCOc2ccc(Cl)cc2)n1
  0.4% | i | 0.08
Cn1ccnc1C(O)(c1nnc(-c2ccccc2)o1)C(F)(F)F (centres undefined)
  -4.1% | i | 2.4
CCOc1ccc(-c2nc(S(=O)(=O)c3ccccc3)c(NCc3cccnc3)o2)cc1
  -1.1% | i | -1.3
COc1ccc(C(=O)Nc2ccc(Cl)cc2C(=O)NCc2ccco2)cc1
  2.6% | i | .
CCOC(=O)C1=C(C)Nc2nc(SCC(=O)OC)nn2C1c1cc(F)cc(F)c1 (centres undefined)
  3.1% | i | 0.49
Cc1ccc(C(NC(N)=O)c2ccccc2C)cc1 (centres undefined)
  -4.0% | i | .
Cc1cccc(OC(=O)C2C(c3ccccc3)C(C(=O)O)C2c2ccccc2)c1 (centres undefined)
  0.3% | i | .
Cn1c(=O)c2c(nc(NCCCN3CCOCC3)n2Cc2ccc(Cl)c(Cl)c2)n(C)c1=O
  0.0% | i | 0.3
CCC(C)[C@H](NC(=O)NCc1ccccc1Cl)C(=O)O (some centres undefined)
  0.3% | i | 0.69
O=C(CCC(=O)OCCCC(F)(F)C(F)(F)F)Nc1ccccc1
  0.2% | i | -0.56
Cc1cc(NS(=O)(=O)c2ccc(NC(=O)c3ccoc3C)cc2)nc(C)n1
  -4.0% | i | 0.51
O=C(NCCCN1CCC(Cc2ccccc2)CC1)C1CCC(=O)N1C1CCCC1 (centres undefined)
  4.3% | i | 0.08
CC(O)CSc1nc2c(c(=O)n(C)c(=O)n2C)n1CCCc1ccccc1 (centres undefined)
  -0.4% | i | -0.29
CCOC(=O)c1ccc(N2C(=O)CC(N3CCN(Cc4ccccc4)CC3)C2=O)cc1 (centres undefined)
  -5.5% | i | -0.53
Oc1ccc(Cl)cc1Cc1cc(Cl)ccc1O
  2.0% | i | -0.29
Cn1c(C(=O)O)cc2cc(F)ccc21
  -4.8% | i | 0.01
Cc1nn(-c2ccccc2)c2nc(N)c(C#N)c(-c3ccc(F)cc3)c12
  0.2% | i | -1.1
CCOC(=O)C1CCN(CCC(=O)Nc2cccc(Cl)c2C)CC1
  5.6% | i | 0.92
O=C(NCc1cccs1)C(Cc1ccccc1)n1cccc1 (centres undefined)
  8.1% | i | 0.15
Clc1ccc2nc(CSc3nc4ccccc4o3)cn2c1
  8.8% | i | -0.14
COc1ccc(NC(=O)CSc2nnc(CNc3ccc(F)cc3)o2)c(OC)c1
  -6.9% | i | 0.6
Cc1c(C(=O)NCCCN2CCOCC2)sc2nc(-c3ccc(F)cc3)cn12
  -2.0% | i | -0.61
COc1cc(C2C(C(C)=O)=C(C)Nc3ncnn32)ccc1O (centres undefined)
  7.0% | i | 0.1
CC1=Nn2c(nnc2-c2cc(-c3ccccc3)n[nH]2)SC1
  -5.6% | i | -0.34
Cn1c(Cn2c(=O)sc3ccccc32)nnc1SCC(=O)NCc1ccco1
  -0.1% | i | 2.7
COc1cccc(CNc2ccc(N3CCCCC3)cc2)c1OC
  1.9% | i | -1.4
CCN(CC)S(=O)(=O)c1ccc(Br)c(OC)c1
  3.0% | i | 0.5
COc1cc(C(=O)N2CCN(c3cc(Cl)ccc3Cl)CC2)cc(OC)c1OC
  -5.1% | + | -0.15
COc1ccc(CCNC(=O)c2ccc3nc(-c4ccco4)c(-c4ccco4)nc3c2)cc1OC
  -11% | i | -1.5
O=C(Oc1c(CN2CCOCC2)cc(Cl)c2cccnc12)c1ccc(F)cc1
  -4.9% | i | 1.5
Cc1ccc(C2/C(=C(/O)c3ccc(OC(C)C)cc3)C(=O)C(=O)N2CCN2CCOCC2)cc1 (centres undefined)
  -0.6% | i | 0.03
Cc1ccc(SCc2nc(-c3ccccn3)no2)cc1
  10% | i | 0.65
CCN(CC)C(=O)CSc1nc(N)c2c3c(sc2n1)CC(C)CC3 (centres undefined)
  0.7% | i | .
CC(O)c1c(OCc2ccccc2)ncnc1OCc1ccccc1 (centres undefined)
  -1.5% | i | -1.1
CSc1nc2ccc(S(=O)(=O)N3CCCC3)cc2s1
  4.4% | i | .
Cc1ccc(CN2CCN(C(=O)c3ccco3)CC2)cc1
  0.4% | i | .
CCOC(=O)CSc1nnc(Cc2cc(=O)[nH]c(=O)[nH]2)n1-c1cccc(OC)c1
  3.7% | i | -0.55
Cc1ccc2c(c1)N(Cc1ccccn1)C(=O)C(C)O2 (centres undefined)
  2.1% | i | -0.76
CCC(C)n1cnc2c(c1=O)c1nc3ccccc3nc1n2Cc1ccccc1OC (centres undefined)
  -7.2% | i | -0.79
N#CC1=C(N)SC(N)=C(C#N)C1CCC1CCCCC1
  -139% | i | 0.11
CCOC(=O)CN1CC23C=CC(O2)C(C(=O)NCc2ccc(C)cc2)C3C1=O (centres undefined)
  5.4% | i | -0.33
COCCCn1c(Cc2csc(Nc3ccccc3)n2)nnc1SCC(N)=O
  1.5% | i | .
CN(C)C=Nc1ncc2c3ccccc3n(Cc3ccccc3)c2c1C#N
  5.7% | i | 0.81
CC(Sc1nc2c(c(=O)n(C)c(=O)n2C)n1Cc1cc2c(cc1Cl)OCO2)C(=O)O (centres undefined)
  1.9% | i | -0.58
Cc1ccc(CNC(=O)c2cccc(-n3cnnn3)c2)cc1
  3.9% | i | 0.18
CCCN1C(=O)c2cc(C(=O)NC3CCCCCC3)ccc2C1O (centres undefined)
  4.4% | i | 0.83
CC1(C)Cc2c(sc3nc(-c4cccs4)n(N)c(=O)c23)CO1
  0.3% | i | -0.48
Cn1c2ccccc2c(=O)n2c(=O)c3ccccc3cc12
  -1.0% | i | -0.75
CCOC(=O)CSc1nc(C(C)(C)C)cc(C(F)(F)F)c1C#N
  -5.2% | i | .
CCn1c(SCC(=O)NCc2cccs2)nnc1-c1cccs1
  -2.9% | i | 0.14
Cc1nc2c(-c3ccc(F)cc3)c(C)nn2c(C)c1CCC(=O)NC(C)CCc1ccco1 (centres undefined)
  3.7% | i | -1.1
Cc1ccc(-c2cc(-c3ccc(Cl)cc3)c(C#N)c(N)n2)o1
  -12% | i | -0.2
Cc1ccc(-c2nn3c(C)nnc3c3ccccc23)cc1S(=O)(=O)N1CCN(CCO)CC1
  -3.1% | i | -0.17

# One compound at a time, from the list above. Values in the order: Hsc70 ATP site	MT1-MMP reporter	WNV protease inh
# Listed for CCN(CC)S(=O)(=O)c1ccc(Br)c(OC)c1 : 3.0%	i	0.5
# Listed for CCOC(=O)CCP(=O)(O)C(O)c1ccccc1 (centres undefined) : 8.2%	i	.
# Listed for Cn1ccnc1C(O)(c1nnc(-c2ccccc2)o1)C(F)(F)F (centres undefined) : -4.1%	i	2.4
# Listed for COc1ccc(NC(=O)CSc2nnc(CNc3ccc(F)cc3)o2)c(OC)c1 : -6.9%	i	0.6

# Later entries
mol,Hsc70 ATP site,MT1-MMP reporter,WNV protease inh
O=C(CN1CCCc2ccccc21)NC(=O)NCc1ccco1,4.4%,i,-0.16
CCSc1nnc(NC(=O)CSc2nc(CC)nc3c2c(=O)n(C)c(=O)n3C)s1,-6.0%,i,1.3
Cc1ccc(N(CC(O)CN2CCCC2)S(=O)(=O)c2ccccc2)cc1 (centres undefined),0.5%,i,-0.83
CCOc1ccccc1NC(=O)CSc1nnnn1Cc1ccccc1,0.8%,i,-0.22
COc1c(C)cccc1C(=O)Nc1ccc(N2CCN(S(C)(=O)=O)CC2)cc1,-6.5%,i,-0.51
COc1cccc(-n2cnnn2)c1,-1.4%,i,.
CCC(=O)Nc1cc(Cl)ccc1C(=O)O,-2.6%,i,.
CCCOC(=O)Cc1c(O)c2ccccc2[nH]c1=O,9.3%,i,0.31
Cc1ccc(C)c(NC(=O)C2CC(=O)N(C(C)C)C2)c1 (centres undefined),3.1%,i,-0.7
O=C(NCC(=O)N(Cc1ccco1)C(C(=O)NC1CCCC1)c1ccncc1)c1cccs1 (centres undefined),2.6%,i,.
CCOC(=O)c1c(NC(C)=O)sc2c1CCC(C=O)=C2Sc1ccccc1,-5.0%,i,.
Cc1cc(NC(=O)c2cn(C3CCCCC3)c(=O)c3c2c2ccccc2n3C)no1,1.5%,i,-1.2
N#Cc1nc(Cc2cccc3ccccc23)oc1NCCCn1ccnc1,1.3%,i,0.6
O=C(COC(=O)c1cc(S(=O)(=O)N2CCOCC2)ccc1O)NCC1CCCO1 (centres undefined),2.9%,i,-0.23
CCOc1ccc(-c2[nH]nc3c2C(c2cccnc2)C(C#N)=C(N)O3)cc1 (centres undefined),-3.1%,i,-0.47
COc1ccc(Cl)cc1Nc1nc(N)nc(C(F)(F)F)n1,2.6%,i,.
COc1ccccc1-n1nnnc1SCc1cc2c(cc1Br)OCO2,-4.1%,i,-0.0049
CCOC(=O)N1CCC(NC(=O)c2cc(C(=O)NCc3ccc(F)cc3)ccc2CO)CC1,-0.5%,i,0.71
Cc1ccc(S(=O)(=O)c2nc(Nc3ccccc3N3CCOCC3)sc2Cl)cc1,-2.4%,i,.
Cc1cc(OC(C)C)nc(-c2ccccc2O)n1,2.2%,i,.
COc1ccccc1NC(=O)N1CCN(c2ccc3nncn3n2)CC1,5.8%,i,-1.5
CC(=O)c1c(C(C)=O)c(C)n(Cc2ccc3c(c2)OCO3)c1C,-2.7%,i,-0.19
CCCCOC(=O)Nc1nnc(CC)s1,5.6%,i,.
COc1ccc2cc(CCNC(=O)C(C)(C)C)c(=O)[nH]c2c1,5.0%,i,-0.4
Cc1nn(Cc2ccccc2Cl)c2sc(C(=O)NC(C)(C)C)cc12,0.3%,i,.
CC(C(=O)N1CCN(c2ccccc2)CC1)N1C(=O)C2CC=CCC2C1=O (centres undefined),5.0%,i,1.8
COc1cc2c(C(=O)NCc3ccc4c(c3)OCO4)cn(C)c(=O)c2cc1OC,4.7%,i,-0.4
Cc1cc(C(=O)O)ccc1-n1c(C)ccc1C,-2.3%,i,-0.79
Cc1ccc(Cl)cc1N1CCN(C(c2ccc(C#N)cc2)c2nnnn2C2CCCC2)CC1 (centres undefined),-2.6%,i,-1.1
CCOc1cc2[nH]c(=S)n(Cc3ccc(C(=O)NCCOC)cc3)c(=O)c2cc1OCC,-5.2%,i,.

# Molecules above that contain bromine, in the order listed:
mol,Hsc70 ATP site,MT1-MMP reporter,WNV protease inh
CCN(CC)S(=O)(=O)c1ccc(Br)c(OC)c1,3.0%,i,0.5
COc1ccccc1-n1nnnc1SCc1cc2c(cc1Br)OCO2,-4.1%,i,-0.0049

# The results go on.
mol,Hsc70 ATP site,MT1-MMP reporter,WNV protease inh
CCOc1ccc(S(=O)(=O)NCc2ccc(F)cc2)c2cccnc12,-6.0%,i,-0.46
CCOc1ccc(C(=O)NC(C(=O)NCc2ccccn2)C(C)C)cc1 (centres undefined),4.5%,i,.
COc1ccccc1NC(=O)CSc1ncnc2c1oc1ccccc12,-0.7%,i,-0.13
O=C(OCC(=O)N(C1CCCCC1)C1CCCCC1)c1cnccn1,0.1%,i,-0.83
CC(C)=C1SC(N2CCN(c3cccc(C)c3)CC2)=NC1=O,0.4%,i,.
CCN1C(=O)NC2C1N(S(C)(=O)=O)CCN2S(C)(=O)=O (centres undefined),2.6%,i,1.7
COCCN(C(=O)Cn1nnc2ccccc21)C(C(=O)NC1CCCCC1)c1ccc(OC)cc1OC (centres undefined),0.3%,i,.
Cc1oc2c(C)c(O)ccc2c(=O)c1-c1cnn(-c2ccccc2)c1,3.1%,i,.
O=C(O)CCN1C(=O)c2ccc(NC(=O)c3cccs3)cc2C1=O,1.1%,i,0.31
CS(=O)(=O)N(CC(=O)NCCC1=CCCCC1)c1ccc2c(c1)OCO2,3.2%,i,0.17
COc1ccc(Cl)cc1N1C(=O)C2CCCN2C1c1ccccc1F (centres undefined),1.0%,i,0.02
COc1c(F)c(F)c(C(=O)Nc2ccccc2N2CCN(C(C)=O)CC2)c(F)c1F,-2.0%,i,1.5
CCN(CC)CCOC(=O)c1ccc(N=CC2=C(O)CC(C)(C)CC2=O)cc1,-1.1%,i,-0.56
O=C1NC(c2ccncc2)C(C(=O)c2cccs2)C(O)(C(F)(F)F)N1 (centres undefined),4.6%,i,.
COC(=O)c1cccc(NC(=O)c2cccnc2)c1,3.4%,i,.
CCCC/C(O)=C1\C(=O)CC(C)(C)CC1=Nc1ccccc1OC,0.2%,i,.
